Screens deposited in PubChem by several laboratories.
AF4-AF9 inh = inhibitors of human MLL-AF4/AF9 interaction. P42568. AlphaScreen, biotin-AF4 peptide binding to FLAG-AF9. inhibition, % at 10 µM. actives 0.47% (n = 350,000). AID 651704;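 active = every replicate reaching a set inhibition limit, whatever the replicate mean, cut at about 25% in these data; inconclusive = mean inhibition reaches that limit but some replicates miss it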;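 also: 0% = plate neutral control median and 100% = total signal loss; the record names both 10 and 1 µM as test concentration; the first replicate is given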
Target sequence (P42568 whole entry, looked up): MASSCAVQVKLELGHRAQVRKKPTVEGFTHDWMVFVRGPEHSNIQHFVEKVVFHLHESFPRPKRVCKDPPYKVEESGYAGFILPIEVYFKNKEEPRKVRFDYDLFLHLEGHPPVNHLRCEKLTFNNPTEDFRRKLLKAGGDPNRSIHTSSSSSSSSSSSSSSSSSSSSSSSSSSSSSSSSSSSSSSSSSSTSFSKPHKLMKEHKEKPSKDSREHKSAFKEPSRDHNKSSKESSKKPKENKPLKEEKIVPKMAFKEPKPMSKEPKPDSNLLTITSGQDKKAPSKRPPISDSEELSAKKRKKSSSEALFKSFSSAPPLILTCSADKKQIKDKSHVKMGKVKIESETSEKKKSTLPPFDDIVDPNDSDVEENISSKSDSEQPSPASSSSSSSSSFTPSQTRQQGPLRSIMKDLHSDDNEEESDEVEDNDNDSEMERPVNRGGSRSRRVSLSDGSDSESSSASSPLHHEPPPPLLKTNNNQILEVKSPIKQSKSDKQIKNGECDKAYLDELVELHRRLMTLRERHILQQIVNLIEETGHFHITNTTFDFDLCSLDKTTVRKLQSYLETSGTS
UCH37 DUB inh = human UCH37 deubiquitinating enzyme inhibition; AID 588478; inhibition, % (concentration not given with the values); purified proteasome/UCH37, Ub-AMC cleavage fluorescence; actives 0.33% (n = 330,000); Q9Y5K5;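 active = mean of two replicates above 20%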;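 also: 0% = compound-free wells with enzyme and 100% = wells lacking proteasome; stock transfer was 100 nL into about 20 µL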
Target sequence (Q9Y5K5 whole entry, looked up): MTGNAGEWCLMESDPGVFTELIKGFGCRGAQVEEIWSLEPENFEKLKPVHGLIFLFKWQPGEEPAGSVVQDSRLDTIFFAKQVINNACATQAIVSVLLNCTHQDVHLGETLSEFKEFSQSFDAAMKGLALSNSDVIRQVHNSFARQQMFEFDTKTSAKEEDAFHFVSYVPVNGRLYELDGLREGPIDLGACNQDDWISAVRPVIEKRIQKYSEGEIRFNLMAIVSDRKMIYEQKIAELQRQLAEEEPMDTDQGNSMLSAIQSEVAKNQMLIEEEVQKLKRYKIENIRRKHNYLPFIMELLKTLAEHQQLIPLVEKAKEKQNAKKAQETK
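Reagent: Ub-AMC substrate; assay system: Proteasome-associated human UCH37 deubiquitinase; controls: no-proteasome and no-compound wells; read-out: % inhibition of Ub-AMC cleavage fluorescence; timing: 30 min preincubation with enzyme, 25 min cleavage at room temperature; signal: AMC fluorescence from Ub-AMC cleavage, excitation 355 nm, emission 460 nm; buffer or medium: Tris-HCl pH 7.4 plus ovalbumin, ATP-MgCl2, DTT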
T cruzi repl = T. cruzi replication inhibition; T. cruzi beta-gal in NIH3T3, luminescence, 90 h; inhibition, % (concentration not given with the values); actives 1.4% (n = 300,000); AID 1885;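 active = mean inhibition across valid replicates above about 55%, limit read from the data; inconclusive = mean below that limit but half or more replicates reach it; inactive = mean below it, under half of replicates reach it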;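 also: signal also drops with host cell toxicity which is not excluded here; 0% = plate median of DMSO wells and 100% = zero luminescence signal; higher percent means less beta-gal luminescence so fewer parasites; stock transfer was 50 nL into about 50 µL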
Bfl-1 A1 inh = inhibitors of the anti-apoptotic protein A1, read as caspase activation; AID 2462; actives 0.066% (n = 330,000); caspase activation, % (no concentration beside the values); MEF A1-2A-BIM cells, Caspase-Glo 3/7 luminescence, 3 h; percent of clofoctol response, vehicle zero;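 active = over half of replicate activation scores above 10%, or exactly half above 10 with the replicate mean above 10; inconclusive = replicate mean below 10 yet half the replicates above 10; inactive = over half of replicates below 10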;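 also: wells of about 30 µL received 50 nL stock; many hits fall short of the cut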
FGF22 binding = shifts melting point of recombinant human FGF22 | Q9HCT0 | recombinant FGF22 thermal shift, SYPRO orange fluorescence; percent of sucrose octasulfate shift, DMSO zero | calls only at 9.99 µM | actives 1.5% (n = 340,000) | AID 651658;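 active = melting point raised past a set limit in the mean and every replicate; inconclusive = no clear call; three in four hits are not shown here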
Ecoli rRNA inh = selective bacterial rRNA inhibition in E. coli; E. coli WT GFP vs humanized-ribosome RFP mutants, fluorescence, 24 h; stronger effect = lower value; DMSO median 0, no signal -100; actives 1.6% (n = 350,000); AID 720706; GFP signal change (wild-type ribosome), % (test concentration not listed);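 active = significant combined selectivity score with lowered wild-type GFP, culture density cut under 30%, mutant RFP and density less affected; inactive = any of these conditions unmet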; also: one replicate is shown; some compounds called inactive have numbers as strong as hits
Beta cell apopt = blocks beta cell apoptosis; protection from apoptosis, % (concentration not given with the values); INS-1E cytokine-induced death, ATP luminescence, 48 h; percent of positive-control rescue, neutral wells zero; AID 435005; actives 0.8% (n = 300,000);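 active = all replicates at 75% or more, or half of them and the mean; inconclusive = half reach 75% but not the mean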;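 also: 0% = cytokine-treated negative control wells and 100% = positive control rescue; higher means more ATP so stronger rescue from cytokine killing; wells of about 40 µL received 100 nL stock; the first replicate is given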
E coli growth = inhibitors of Escherichia coli growth; OD600, 23 h; stronger effect = lower value; OD600 absorbance (test concentration not listed); actives 0.21% (n = 330,000);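 active = OD600 absorbance below the run mean of sample wells minus 3.6 SD, in any replicate, cut at about 0.56 in these data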;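 also: stock transfer was 300 nL into about 60 µL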
Ecoli rRNA inh OD600 = also measured in Ecoli rRNA inh; calls as there; OD600 change, %; measured here: OD600 growth;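 optical density of the mix in the first replicate; 0 = DMSO median and -100 = no signal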
Ecoli rRNA inh RFP = second read-out of Ecoli rRNA inh, no call of its own (marks repeat the call); RFP signal change, %; measured here: RFP humanized mutant strains;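 first replicate; 0 = DMSO median and -100 = no signal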
The depositor's hits bear a star; i = inactive; ? = inconclusive; . = no result given; & = joins results of further samples.

entry	Molecule	AF4-AF9 inh	UCH37 DUB inh	T cruzi repl	Bfl-1 A1 inh	FGF22 binding	Ecoli rRNA inh	Ecoli rRNA inh OD600	Ecoli rRNA inh RFP	Beta cell apopt	E coli growth
1	COc1ccccc1C(=O)Nc1ccnn1C1CCN(CCC(C)c2ccc(C)o2)CC1 (centres undefined)	1.3	2.3	19.2	-1.2	i	15.2	9.8	2.5	1.3	0.674
2	COc1cc(C2c3c(oc4ccccc4c3=O)C(=O)N2Cc2ccco2)ccc1O (centres undefined)	.	0.3	-2.4	0.6	.	.	.	.	4.9	0.677
3	CCOc1ccc(NC(=O)c2ccccc2NC(=O)CNC2CCCC(C)C2C)cc1 (centres undefined)	-0.9	-3.6	.	-0.7	i	-4.8	-3.3	-1.5	9.1	0.709
4	O=C(Nc1cccc(C(F)(F)F)c1)C1CCN(S(=O)(=O)c2cnc[nH]2)CC1	.	4.5	3.7	0.3	.	.	.	.	-8.9	0.737
5	CCOc1ccc(/C=C/C(=O)NCc2ccccc2)cc1	-1.3	4.3	4.1	?	i	14.9	12.3	-1.1	2.4	0.7
6	CCCC(=O)NC(NC(=S)Nc1ccc(N=Nc2ccccc2)cc1)C(Cl)(Cl)Cl (centres undefined)	6.9	9.0	41.7	-0.5	i	-17.6	-30.4	9.2	109.0*	0.692
7	CCOc1ccc(C(=O)NCCc2ccc3c(c2)OCCO3)cc1	-1.7	1.6	5.6	-1.2	i	-3.8	-6.0	-2.4	1.5	0.695
8	O=C(CSc1ccccc1C(=O)O)NCc1ccc(Cl)cc1	-7.9	-0.2	-6.0	-0.7	i	18.4	16.0	0.8	7.3	0.69
9	O=C(NNc1c2ccccc2nc2ccccc12)c1ccc(O)cc1	2.7	3.6	0.1	-0.1	i	-23.4	-38.7	-8.8	47.4	0.657
10	CCOC(=O)C1=C(N)N(c2ccccc2)C(=O)C1	.	0.8	-5.6	-0.1	.	.	.	.	.	0.697
11	COc1ccc(CNC(=O)C2CC(O)CN2C(=O)Nc2ccccc2)cc1 (centres undefined)	1.5	0.3	1.9	.	i	3.3	3.9	-3.2	.	0.653
12	NC1=NC(c2cccc(O)c2)n2c(nc3ccccc32)N1 (centres undefined)	.	3.5	10.8	0.2	.	.	.	.	.	0.682
13	COc1ccc(/C=N/NC(=O)c2ccc(NC(C)=O)cc2)cc1COc1ccc(F)cc1F	-1.2	.	1.7	1.2	i	7.8	10.9	-1.5	-16.4	.
14	Cc1ccc(C(=O)O[C@H](C(=O)O)[C@H](OC(=O)c2ccc(C)cc2)C(=O)O)cc1	-4.6	3.1	-7.8	1.4	i	7.9	13.6	-0.9	-4.7	0.693
15	C=CCONC(=O)Cc1ccccc1	0.2	1.1	.	.	i	6.5	-0.9	1.1	.	0.665
16	CN(C)C(=O)Nc1ccccc1	.	1.4	-16.2	-1.0	i	23.8	13.7	-1.5	-1.9	0.655
17	COc1cc(CCC(=O)Nc2ccc(S(=O)(=O)N3CCOCC3)cc2)cc(OC)c1OC	1.0	0.5	.	0.7	i	6.2	6.4	-1.0	-3.6	0.674
18	CCOC(=O)N1CCN(S(=O)(=O)c2ccc3c(c2)OCC(=O)N3)CC1	.	0.9	-4.8	0.6	.	.	.	.	3.9	0.662
19	CN1CCN(c2oc(COc3ccc(-c4ccccc4)cc3)nc2C#N)CC1	.	2.0	76.7*	-0.4	.	.	.	.	4.1	0.632
20	COc1ccc(Br)cc1C(=O)Nc1ccc(N2CCCC2)cc1	-2.8	-21.9	40.3	-0.3	.	-2.9	7.5	-3.9	-1.8	0.691
21	O=C(N/N=C1\CC(c2ccccc2)Oc2ccccc21)c1cccnc1 (centres undefined)	1.2	.	4.7	1.0	i	6.4	-22.3	1.8	24.2	.
22	Cc1ccc(Oc2ccc(NC(=O)C3=CC=CN4CCS(=O)(=O)N=C34)cc2)cc1	1.0	5.4	.	-1.3	i	7.6	13.3	8.0	-5.8	0.711
23	N=C1C=CC=C2C1=NC1(CCCCC1)N2O	.	5.0	-1.1	-0.9	.	.	.	.	2.0	0.613
24	O=C(NCCc1ccc(Cl)cc1)C1CCCN(S(=O)(=O)c2cnc[nH]2)C1 (centres undefined)	-1.8	4.2	8.3	0.0	i	1.7	1.5	0.1	-3.2	0.682
25	CCCCn1cnc2cc(NCc3cccc(OC)c3O)ccc21	.	-1.0	14.2	0.0	.	.	.	.	-1.8	0.731
26	Cc1c(NC(=O)c2ccco2)c(=O)n(-c2ccccc2)n1C	2.6	2.1	-2.4	-0.8	i	17.8	11.8	1.7	-0.1	0.698
27	COc1ccccc1NC(=O)NCc1ccc(C)n1C	3.4	2.4	-11.1	0.2	i	7.7	9.4	1.3	-2.4	0.691
28	O=C(Cc1ccc(F)cc1)OCC(=O)c1cc2ccccc2o1	.	2.1	-6.7	0.6	.	1.3	4.1	-1.4	-3.6	0.763
29	CC(=O)N1CCN(CC(=O)Nc2cc([N+](=O)[O-])ccc2Cl)CC1	-15.5	6.8	.	1.0	i	1.1	-0.9	0.9	-4.7	0.682
30	COCCCN(C(=O)CSCC(=O)Nc1cccc(C)c1)c1c(N)n(Cc2ccccc2)c(=O)[nH]c1=O	-2.2	0.9	0.0	0.3	i	11.4	3.0	4.4	-2.9	0.721
31	CCOc1ccc(N(CC(=O)NC(C)(C)C)C(=O)c2ccco2)cc1	.	1.7	13.0	-0.3	.	.	.	.	.	0.675
32	CC(C(=O)Nc1cccc(S(=O)(=O)N2CCOCC2)c1)N1CCN(C/C=C/c2ccccc2)CC1 (centres undefined)	5.5	0.4	19.4	0.5	i	8.5	-10.0	1.6	1.9	0.723
33	C[C@H](CO)N1C[C@H](C)[C@H](CN(C)C)Oc2ccc(NS(=O)(=O)c3ccc(F)cc3)cc2CC1=O	-1.0&-18.8	0.8	.	1.1	i	2.5&5.0	3.7&4.0	-3.3&-7.4	5.1	0.77
34	CC(C(=O)Nc1ccc(N2CCOCC2)cc1)N1C(=O)c2ccccc2C1=O (centres undefined)	3.2	4.3	-3.1	0.4	i	2.1	3.6	0.4	.	0.719
35	CC1CC(C)CN(CC(O)COc2ccc3c(c2)CCC3)C1 (centres undefined)	-1.7	3.6	-8.7	-1.2	i	-7.5	-21.0	8.3	-2.4	0.716
36	O=C(NNC(=O)c1ccccc1[N+](=O)[O-])c1ccco1	-2.4	3.8	-3.8	-0.2	i	6.5	23.0	0.5	-0.7	0.667
37	O=C(CN(C(=O)CNC(=O)c1cccs1)c1ccccc1F)NC1CCCCC1	-1.0	1.8	-5.8	-0.3	i	4.8	6.9	2.9	-4.2	0.656
38	COc1ccc(/C=N/NC2=NS(=O)(=O)c3ccccc32)cc1OC	0.2	.	-1.1	0.1	i	13.8	12.7	11.4	-3.4	.
39	COc1ccc(NC(=O)CNC(=O)c2nn(-c3ccc(OC)cc3OC)c(=O)c3ccccc23)c(OC)c1	-1.7	-2.9	5.7	0.4	i	-5.8	-3.1	-3.1	0.2	0.713
40	O=c1c2ccccc2c(=O)n(-c2ccccc2)n1CCCCBr	1.5	6.1	1.8	0.4	i	.	.	.	3.1	0.663
41	CCO[C@@H]1OC(C(N)=O)=C[C@H](c2ccc(C(F)(F)F)cc2)[C@H]1CCCO	-2.6	0.2	-2.9	-2.1	i	5.1	-4.4	-7.5	-4.6	.
42	CCCOc1ccc(C(=O)Nc2cc(-c3nn4c(C)nnc4s3)ccc2C)cc1	-1.0	1.0	0.6	-0.1	i	8.4	8.0	-0.4	1.6	0.726
43	Cc1cccc(C)c1-n1nnnc1-c1cnccc1C(F)(F)F	1.2	1.0	2.4	-0.2	i	-13.9	-16.1	-0.5	-3.4	0.666
44	CCNC(=S)N(CCCN(CC)CC)Cc1cc2cc3c(cc2[nH]c1=O)OCO3	-10.6	-186.4	2.1	0.2	i	13.7	12.7	-1.2	-2.2	0.68
45	O=C(/C=C/c1ccc2c(c1)OCO2)Nc1nncs1	-4.5	-57.1	2.6	-5.3	i	9.0	6.8	1.8	.	0.658
46	CCc1nnc(NC(=O)c2ccc(N3C(=O)CCC3=O)cc2)s1	0.0	1.5	2.7	-0.5	i	-5.3	5.4	-7.8	-4.9	0.696
47	COC(=O)c1cc(C(=O)OC)n(Cc2ccc(F)cc2)c1C	0.1	1.5	-14.6	-0.2	.	-40.5*	-12.5*	-10.2*	-3.8	0.665
48	O=C(OCc1nc2ccccc2s1)c1cccs1	.	-1.6	-1.6	-2.5	.	.	.	.	-4.0	0.709
49	CC(=O)N1CCOc2ccc(S(=O)(=O)N3CCN(c4cccc(C(F)(F)F)c4)CC3)cc21	-2.4	1.9	34.3	0.4	i	-14.2	-8.5	-2.7	-9.3	0.702
50	CCc1ccccc1NC(=O)C1CCCN1C(=O)NCc1ccccc1 (centres undefined)	-0.9	0.0	-12.5	-1.6	i	10.6	-0.8	0.1	.	0.694
51	CCCCCCC(C)OC(=O)c1ccccc1C(=O)O (centres undefined)	-2.6	.	0.6	-0.1	i	-0.7	19.5	0.1	.	.
52	COc1ccc(C(C(=O)NC2CCCC2)N(Cc2cccnc2)C(=O)c2snc(C(N)=O)c2N)cc1 (centres undefined)	3.3	2.7	3.9	-0.3	i	4.1	15.6	0.8	2.3	0.603
53	CCc1ccc(N2C(=O)CC(N3CCN(c4ccccn4)CC3)C2=O)cc1 (centres undefined)	-3.2	2.3	-19.6	0.4	i	3.3	6.1	-0.6	-5.8	0.676
54	COc1ccc(-n2c(-c3cc(-c4ccccc4)sc3N)n[nH]c2=S)cc1	.	-0.6	45.5	0.5	i	-8.7	8.8	2.7	-3.0	0.664
55	Oc1c(C(Nc2ccccn2)c2cccnc2)cc(Cl)c2cccnc12 (centres undefined)	42.8*	-0.2	55.3*	0.0	i	-56.8	-78.8	-32.3	84.6*	0.675
56	CC(NC(=O)C(=O)N1CCCCC1)C(c1cccs1)N1CCN(c2ccccc2)CC1 (centres undefined)	2.6	4.8	-25.3	-0.7	i	2.2	-22.0	3.0	-1.2	0.673
57	O=C(O)c1ccc(Cl)c(S(=O)(=O)N(Cc2ccccc2)c2ccc(F)cc2)c1	1.7	1.4	-1.6	0.2	i	-53.8	-71.9	-15.3	3.2	0.619
58	COc1ccc(NC(=O)c2cccnc2N2CCCCC2)cc1	.	-2.8	-0.1	0.3	.	.	.	.	-0.4	0.708

Not all compounds are listed; the hit share may differ from the screen's.
